Screening results as filed in PubChem BioAssay.
Beta cell apopt – beta cell apoptosis inhibition; protection from apoptosis, % (test concentration not listed); 0.8% of 300,000 active; INS-1E cytokine-induced death, ATP luminescence, 48 h; percent of positive-control rescue, neutral wells zero;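 active means all replicates at 75% or more, or half of them and the mean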;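 further: 0% = cytokine-treated negative control wells and 100% = positive control rescue; higher means more ATP so stronger rescue from cytokine killing; wells of about 40 µL received 100 nL stock; the first replicate is given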
A1 inh – inhibitors of the anti-apoptotic protein A1, read as caspase activation. caspase activation, % (test concentration not listed). MEF A1-2A-BIM cells, Caspase-Glo 3/7 luminescence, 3 h; percent of clofoctol response, vehicle zero. 0.066% of 330,000 active;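 active means over half of replicate activation scores above 10%, or exactly half above 10 with the replicate mean above 10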;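 further: wells of about 30 µL received 50 nL stock; many hits fall short of the cut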
E coli growth – inhibitors of Escherichia coli growth; OD600 absorbance (concentration not given with the values); 0.21% of 330,000 active; AID 1053175; OD600, 23 h; active compounds read low;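 active means OD600 absorbance below the run mean of sample wells minus 3.6 SD, in any replicate, cut at about 0.56 in these data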;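 further: stock transfer was 300 nL into about 60 µL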
UCH37 inh – inhibitors of human deubiquitinating enzyme UCH37. Q9Y5K5. purified proteasome/UCH37, Ub-AMC cleavage fluorescence. inhibition, % (concentration not given with the values). 0.33% of 330,000 active. AID 588478;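 active means mean of two replicates above 20%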;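 further: 0% = compound-free wells with enzyme and 100% = wells lacking proteasome; stock transfer was 100 nL into about 20 µL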
Target sequence (Q9Y5K5 whole entry, looked up): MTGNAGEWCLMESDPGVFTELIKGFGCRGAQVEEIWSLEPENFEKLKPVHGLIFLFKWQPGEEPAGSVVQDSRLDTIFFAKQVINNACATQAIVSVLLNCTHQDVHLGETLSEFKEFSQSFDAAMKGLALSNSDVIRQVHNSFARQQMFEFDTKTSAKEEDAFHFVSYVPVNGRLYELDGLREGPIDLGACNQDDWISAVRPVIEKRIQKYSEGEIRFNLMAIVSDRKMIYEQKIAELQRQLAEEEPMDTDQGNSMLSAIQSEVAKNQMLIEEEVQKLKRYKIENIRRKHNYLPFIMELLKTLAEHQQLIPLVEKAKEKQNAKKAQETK
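Material: human UCH37 enzyme supplied as purified proteasome complex / Amount: 0.15 nM proteasome as dispensed / Buffer or medium: pH 7.4 Tris-HCl (50 mM) with ovalbumin, ATP-MgCl2, DTT / Times: preincubation 30 min, reaction 25 min, room temperature / Technique: AMC fluorescence from Ub-AMC cleavage, excitation 355 nm, emission 460 nm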
T cruzi repl – blocks replication of Trypanosoma cruzi; 1.4% of 300,000 active; AID 1885; T. cruzi beta-gal in NIH3T3, luminescence, 90 h; inhibition, % (concentration not given with the values);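 active means mean inhibition across valid replicates above about 55%, limit read from the data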;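 further: signal also drops with host cell toxicity which is not excluded here; 0% = plate median of DMSO wells and 100% = zero luminescence signal; higher percent means less beta-gal luminescence so fewer parasites; stock transfer was 50 nL into about 50 µL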
MLL AF4-AF9 inh – inhibitors of human MLL-AF4/AF9 interaction. inhibition, % at 10 µM. P42568. 0.47% of 350,000 active. AID 651704. AlphaScreen, biotin-AF4 peptide binding to FLAG-AF9;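 active means every replicate reaching a set inhibition limit, whatever the replicate mean, cut at about 25% in these data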;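 further: 0% = plate neutral control median and 100% = total signal loss; the record names both 10 and 1 µM as test concentration; the first replicate is given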
Target sequence (P42568 whole entry, looked up): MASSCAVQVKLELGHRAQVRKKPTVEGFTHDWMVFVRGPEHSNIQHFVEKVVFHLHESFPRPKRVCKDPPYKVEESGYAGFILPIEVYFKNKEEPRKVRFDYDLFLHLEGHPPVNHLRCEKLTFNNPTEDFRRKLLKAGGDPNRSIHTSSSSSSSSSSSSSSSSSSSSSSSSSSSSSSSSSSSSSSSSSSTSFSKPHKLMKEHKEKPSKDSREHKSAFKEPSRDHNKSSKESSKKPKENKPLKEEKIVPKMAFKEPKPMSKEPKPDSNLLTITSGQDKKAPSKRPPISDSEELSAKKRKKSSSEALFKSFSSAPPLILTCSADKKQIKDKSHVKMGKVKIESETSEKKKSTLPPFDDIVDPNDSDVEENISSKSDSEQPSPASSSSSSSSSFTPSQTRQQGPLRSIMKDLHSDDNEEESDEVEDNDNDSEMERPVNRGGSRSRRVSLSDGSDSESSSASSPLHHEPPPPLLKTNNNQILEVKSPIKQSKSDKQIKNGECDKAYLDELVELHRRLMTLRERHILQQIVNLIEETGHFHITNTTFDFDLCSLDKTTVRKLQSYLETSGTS
FGF22 binding – binders of recombinant human FGF22 by thermal shift; Q9HCT0; 1.5% of 340,000 active; AID 651658; SYPRO orange fluorescence; percent of sucrose octasulfate shift, DMSO zero; calls only at 9.99 µM;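 active means melting point raised past a set limit in the mean and every replicate; three in four hits are not shown here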
Target sequence (Q9HCT0 whole entry, looked up): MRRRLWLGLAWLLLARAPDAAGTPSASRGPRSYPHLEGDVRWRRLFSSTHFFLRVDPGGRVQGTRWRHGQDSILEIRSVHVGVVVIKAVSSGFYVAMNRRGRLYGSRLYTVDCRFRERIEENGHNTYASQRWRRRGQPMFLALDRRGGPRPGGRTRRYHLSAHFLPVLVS
Ecoli rRNA inh – selective bacterial rRNA inhibition in E. coli. E. coli WT GFP vs humanized-ribosome RFP mutants, fluorescence, 24 h; active compounds read low; DMSO median 0, no signal -100. GFP signal change (wild-type ribosome), % (test concentration not listed). 1.6% of 350,000 active;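 active means significant combined selectivity score with lowered wild-type GFP, culture density cut under 30%, mutant RFP and density less affected; inactive means any of these conditions unmet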; further: one replicate is shown; some compounds called inactive have numbers as strong as hits
Ecoli rRNA inh OD600 – second read-out of Ecoli rRNA inh, no call of its own (marks repeat the call); OD600 change, %; measured here: OD600 growth;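 optical density of the mix in the first replicate; 0 = DMSO median and -100 = no signal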
Ecoli rRNA inh RFP – also measured in Ecoli rRNA inh; calls as there; RFP signal change, %; measured here: RFP humanized mutant strains;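 first replicate; 0 = DMSO median and -100 = no signal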
Starred values were filed as active, the others as inactive; i = inactive; x = not tested or not shown. The list is partial; rates above refer to the full screens.

SMILES	Beta cell apopt	A1 inh	E coli growth	UCH37 inh	T cruzi repl	MLL AF4-AF9 inh	FGF22 binding	Ecoli rRNA inh	Ecoli rRNA inh OD600	Ecoli rRNA inh RFP
CC1CCN(C(=O)c2ccc(NS(=O)(=O)c3ccc4[nH]c(=O)[nH]c4c3)cc2)CC1	-2	0.1	0.61	-1.5	0	2.8	i	16	5	-1.1
COc1cccc(NC(=O)CSc2nnc(-c3cc(C)[nH]n3)n2N)c1	-10	-0.4	0.69	1.5	7	0.5	i	2	3	-1.5
CCOC(=O)N1CCN(C(=O)c2ccc3c(=O)n(CCc4ccccc4)c(=O)[nH]c3c2)CC1	-2	-0.5	0.68	2.5	4	x	x	x	x	x
O=C(COC(=O)CNC(=O)c1ccccc1F)NC1CC1	-1	-0.2	0.62	-0.8	x	-2.0	i	4	4	-1.8
CCOC(=O)c1cnc(-n2nc(C)cc2C)nc1N1CC(C)OC(C)C1 (centres undefined)	-1	0.5	0.73	5.9	-6	x	x	x	x	x
O=C(Nc1ccc(Cl)cn1)c1cccc(OCc2ccccc2)c1	-1	-2.6	0.68	0.1	-3	-0.1	i	-6	-24	-3.5
COc1ccc(C(=O)C[n+]2ccc(-c3nnc4n3CCCCC4)cc2)cc1	-5	0.9	0.68	1.2	-15	10	i	1	3	3.4
CCOP(=O)(OCC)C(Nc1ccccn1)c1ccc(F)cc1 (centres undefined)	3	0.2	0.69	2.0	-23	x	x	x	x	x
CC(CC(=O)N1CCc2ccccc21)S(=O)(=O)c1ccc2c(c1)NC(=O)CO2 (centres undefined)	-3	-0.1	0.66	2.2	2	-0.4	i	-1	5	-0.9
CN(CC(=O)Nc1ccc(Br)cc1)Cc1ccccc1	-5	0.5	0.67	2.6	5	-1.9	i	-18	-32	4.6
Cc1ccc(-c2noc(CN(C(=O)c3cccs3)C(C)C)n2)cc1	2	2.5	0.65	5.2	-4	8.0	i	-20	-18	-0.3
O=C(/C=C/c1cccs1)NC(=S)Nc1ccccc1	-6	-0.5	0.69	3.3	0	7.3	i	-10	2	-0.6
O=C(CN1CCC(C(=O)c2ccc3c(c2)OCCO3)CC1)NCc1ccccc1	-2	0.1	0.66	-0.8	5	-0.4	i	0	-15	0.0
O=S(=O)(c1cc(F)ccc1F)N1CCN(c2ncnc3ccccc23)CC1	104*	-1.1	0.7	-0.1	x	-0.1	i	-12	-52	-13
CC(C(=O)Nc1ccc(S(=O)(=O)N2CCCC2)cc1)N(C)Cc1ccc(F)cc1 (centres undefined)	2	1.3	0.66	1.4	x	2.4	i	-6	-25	-2.1
CN(Cc1nccn1C)C(=O)c1cc(COc2ccc3ncccc3c2)on1	10	-0.2	0.71	0.0	-3	-1.8	i	x	x	x
COc1ccc(OC)c2sc(NC(=O)c3ccc(S(=O)(=O)N4CCOCC4)cc3)nc12	5	x	0.73	-0.8	0	-6.0	i	6	7	-2.4
Cc1nn(CC(=O)NCCCN2CCC(Cc3ccccc3)CC2)c(=O)c2cc(-c3ccccc3)nn12	5	1.9	0.7	5.5	4	-1.5	i	1	-4	-0.5
O=C1N(c2ccccc2C(F)(F)F)O[C@]1(c1ccccc1)C1CCCC1	0	0.7	0.69	0.7	x	1.9	i	17	9	-5.2
CCOC(=O)C1=C(C)NC(=S)NC1c1cc(C)sc1C (centres undefined)	-7	0.7	0.7	7.0	-4	-5.5	i	2	-2	-7.7
COc1ccc(N(CC(=O)NCc2ccccn2)S(=O)(=O)c2ccccc2[N+](=O)[O-])c(OC)c1	-3	0.4	0.67	-0.8	4	0.2	i	-20	-19	-2.1
CCN(C(=O)C1CCN(c2nc(-c3ccc(OC)cc3)no2)CC1)c1ccc(OC)cc1	-5	-0.3	0.77	3.9	29	-0.6	i	-1	-4	3.5
Cc1ccc(C2/C(=C(/O)c3ccccc3)C(=O)C(=O)N2CCN2CCOCC2)o1 (centres undefined)	-12	-0.6	0.67	3.0	-20	x	x	x	x	x
O=C(CCCN1C(=O)c2ccccc2C1=O)Nc1ccc(Br)cn1	-14	-1.0	0.68	5.1	-8	-21	i	7	-1	-3.6

Profiles as entered above:
Results for CC(C(=O)Nc1ccc(S(=O)(=O)N2CCCC2)cc1)N(C)Cc1ccc(F)cc1 (centres undefined) → Beta cell apopt = 2; A1 inh = 1.3; E coli growth = 0.66; UCH37 inh = 1.4; T cruzi repl = x; MLL AF4-AF9 inh = 2.4; FGF22 binding = i; Ecoli rRNA inh = -6; Ecoli rRNA inh OD600 = -25; Ecoli rRNA inh RFP = -2.1
Results for Cc1nn(CC(=O)NCCCN2CCC(Cc3ccccc3)CC2)c(=O)c2cc(-c3ccccc3)nn12 → Beta cell apopt = 5; A1 inh = 1.9; E coli growth = 0.7; UCH37 inh = 5.5; T cruzi repl = 4; MLL AF4-AF9 inh = -1.5; FGF22 binding = i; Ecoli rRNA inh = 1; Ecoli rRNA inh OD600 = -4; Ecoli rRNA inh RFP = -0.5

Additional records
SMILES	Beta cell apopt	A1 inh	E coli growth	UCH37 inh	T cruzi repl	MLL AF4-AF9 inh	FGF22 binding	Ecoli rRNA inh	Ecoli rRNA inh OD600	Ecoli rRNA inh RFP
CCOC(=O)c1ccc(NC(=O)COc2ccc(-n3cnnn3)cc2)cc1	-4	-0.1	0.7	-2.3	-8	x	x	x	x	x
O=C(Nc1cccc(S(=O)(=O)N2CCOCC2)c1)c1cccc(S(=O)(=O)N2CCCC2)c1	x	x	0.66	1.9	x	0.5	x	-7	5	1.2
CN(C(=O)CSc1nc(-c2cccs2)nc2ccccc12)C1CCS(=O)(=O)C1 (centres undefined)	3	0.8	0.73	-18	x	-8.6	i	5	6	2.3
CCc1cc2c(=O)n(Cc3ccco3)c(SCC(=O)N3CCCc4ccccc43)nc2s1	-11	-2.3	0.73	0.4	39	x	x	x	x	x
CC(C)CN(C(=O)CN1C(=O)NC2(CCc3ccccc32)C1=O)C1CCS(=O)(=O)C1 (centres undefined)	-4	1.7	0.71	3.2	x	0.1	i	11	14	-0.1
c1ccc(SCc2cc(-c3ccccc3)no2)cc1	x	-2.3	0.65	1.4	-2	-5.6	i	-9	-14	1.8
CCC(=O)NC(Nc1cc(C)ccn1)(C(F)(F)F)C(F)(F)F	5	0.4	0.67	0.2	-5	-43	i	20	15	2.8
Cc1nc(NC(=O)COC(=O)C(NC(=O)c2ccco2)C(C)C)c(Cl)cc1Cl (centres undefined)	-9	0.0	0.73	2.5	-4	x	x	x	x	x
CCOC(=O)c1ccc(NC(=S)Nc2ccc(Cl)cn2)cc1	-9	-0.6	0.72	8.8	-14	1.1	i	14	15	0.7
Clc1ccc(Cn2ccc(-c3ccc4c(c3)OCO4)n2)cc1Cl	-2	0.2	0.68	-0.9	2	x	x	x	x	x
Cc1ccc(-n2ncc3c2CC(C)(C)CC3NC(=O)CCCN2CCCCC2=O)cc1 (centres undefined)	-6	0.5	0.63	0.0	13	-3.8	i	-5	0	-0.7
CCN(CC(=O)Nc1cc(S(=O)(=O)N2CCOCC2)ccc1Cl)Cc1ccccc1	10	1.6	0.72	2.3	x	4.5	i	-14	-22	-7.2
CC1N(C(=O)N2CCOCC2)CCN1S(=O)(=O)c1cccc(C(F)(F)F)c1 (centres undefined)	x	-1.1	0.68	3.0	-10	-1.1	i	7	8	-0.3
COc1ccc(Cn2nnnc2C(CC(C)C)N2CCN(c3ccccc3)CC2)cc1 (centres undefined)	2	0.2	0.77	4.0	31	x	x	x	x	x
O=C(NC1CCC(O)CC1)c1ccc(NS(=O)(=O)c2cccc([N+](=O)[O-])c2)cc1 (centres undefined)	0	-0.6	0.69	0.6	x	-1.7	i	x	x	x
Cc1cc(CN(C)Cc2cn(C)nc2-c2ccc(Oc3ccccc3)cc2)on1	4	0.7	0.68	2.4	7	-10	i	-22	-18	20
O=C(NCc1ccccc1)C1CCCN1C(=O)Nc1ccccc1[N+](=O)[O-] (centres undefined)	x	0.8	0.68	4.3	-15	2.0	i	14	12	0.8
O=C(CCC(=O)Nc1cc(C(F)(F)F)ccc1Cl)N/N=C\c1cc([N+](=O)[O-])ccc1O	40	-0.2	x	x	19	2.4	i	5	5	2.0
Cn1c(N)c(C(=O)COC(=O)c2cccs2)c(=O)n(C)c1=O	-1	0.4	0.7	1.4	-5	x	x	x	x	x
CCCN(CC1CC1)C(=S)NC(=O)C1CC1	-8	-0.7	0.72	0.2	-12	-4.2	i	-6	-1	-1.1
Cc1sc(NC(=S)NC(=O)CCc2ccccc2)c(C(N)=O)c1C	0	2.2	0.64	4.2	x	-6.3	i	-3	1	20
CS(=O)(=O)c1ccc(C(=O)CN2C(=O)NC3(CCCc4ccccc43)C2=O)cc1 (centres undefined)	0	1.0	0.68	-1.2	x	4.2	i	-2	3	-1.4
CCCNC(=S)N1CCC(n2cnc3ccccc32)CC1	-1	0.5	0.69	2.9	-5	-1.4	i	3	-4	-7.4
Cc1cc(NO)c(C(C)C)cc1N=O	0	0.0	0.66	2.8	1	0.3	i	x	x	x

Structures shown so far containing a CF3 group, in the order listed:
SMILES	Beta cell apopt	A1 inh	E coli growth	UCH37 inh	T cruzi repl	MLL AF4-AF9 inh	FGF22 binding	Ecoli rRNA inh	Ecoli rRNA inh OD600	Ecoli rRNA inh RFP
O=C1N(c2ccccc2C(F)(F)F)O[C@]1(c1ccccc1)C1CCCC1	0	0.7	0.69	0.7	x	1.9	i	17	9	-5.2
CCC(=O)NC(Nc1cc(C)ccn1)(C(F)(F)F)C(F)(F)F	5	0.4	0.67	0.2	-5	-43	i	20	15	2.8
CC1N(C(=O)N2CCOCC2)CCN1S(=O)(=O)c1cccc(C(F)(F)F)c1 (centres undefined)	x	-1.1	0.68	3.0	-10	-1.1	i	7	8	-0.3
O=C(CCC(=O)Nc1cc(C(F)(F)F)ccc1Cl)N/N=C\c1cc([N+](=O)[O-])ccc1O	40	-0.2	x	x	19	2.4	i	5	5	2.0

Other compounds:
SMILES	Beta cell apopt	A1 inh	E coli growth	UCH37 inh	T cruzi repl	MLL AF4-AF9 inh	FGF22 binding	Ecoli rRNA inh	Ecoli rRNA inh OD600	Ecoli rRNA inh RFP
COc1ccc(CN2[C@@H](CC(=O)O)c3cc(C(F)(F)F)ccc3S2(=O)=O)cc1	-3	0.4	x	1.1	-10	-4.7	i	5	-1	1.3
Fc1cc(F)c2nc(N3CCCC3)sc2c1	0	-4.3	0.68	-0.1	-2	-1.3	i	0	-9	1.2
Fc1ccc(-n2[nH]nnc2=S)cc1N1CCCC1	x	-0.5	0.65	0.1	0	9.9	i	5	-6	-2.9
CCNC(=O)C12CCC(C)(C(=O)O1)C2(C)C (centres undefined)	-1	0.1	0.69	0.5	-14	-0.4	i	x	x	x
CCn1nc(C(=O)Nc2ccccc2N2CCCC2)c2ccccc2c1=O	17	0.4	0.65	1.2	22	8.4	i	-12	-17	1.1
COc1ccc(-c2n[nH]c(C)c2-c2cscn2)c(O)c1	-3	0.0	0.66	2.0	-11	-6.9	i	4	7	3.5
COc1ccc(CCNCC(O)COc2ccc(OC)cc2C(C)(C)C)cc1 (centres undefined)	-5	0.5	0.66	3.2	20	18	i	-31	-65	23
CCOC(=O)/C(C#N)=C/c1cn(CCC(=O)O)nc1-c1ccc(OC)cc1	0	-0.5	0.67	9.2	-2	18	i	-8	-16	-4.1
CCOC(=O)c1ccc(S(=O)(=O)N2CC(=O)Nc3ccccc32)cc1	-6	0.6	0.62	-1.1	9	-0.2	i	-2	-19	2.4
